HCMV UL50-53 inh: inhibitors of HCMV UL50-UL53 nuclear egress complex interaction; HTRF UL50-UL53 interaction, normalized percent inhibition; inhibition, % (test concentration not listed); hit rate 0.15% among 190,000;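 active means both replicates at 50% or more, plus weaker picks with an unusually low signal ratio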;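 further: stock transfer was 100 nL into about 20 µL; 0% = negative control wells and 100% = wells with untagged competitor protein; inactives centre near -12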
GIV-Gai inh: GIV-Galpha-i interaction inhibition | P08753 | Galpha-i3/FITC-GIV peptide fluorescence polarization, 90 min; stronger effect = lower value; scaled: aluminum fluoride 0%, vehicle 100% | percent of control (FP), % (no concentration beside the values) | hit rate 0.42% among 210,000 | AID 1224905;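 active means replicate mean at 85% of control or lower, very high polarization wells dropped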;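 further: wells of about 15 µL received 100 nL stock; the first replicate is given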
Target sequence (P08753 whole entry, looked up): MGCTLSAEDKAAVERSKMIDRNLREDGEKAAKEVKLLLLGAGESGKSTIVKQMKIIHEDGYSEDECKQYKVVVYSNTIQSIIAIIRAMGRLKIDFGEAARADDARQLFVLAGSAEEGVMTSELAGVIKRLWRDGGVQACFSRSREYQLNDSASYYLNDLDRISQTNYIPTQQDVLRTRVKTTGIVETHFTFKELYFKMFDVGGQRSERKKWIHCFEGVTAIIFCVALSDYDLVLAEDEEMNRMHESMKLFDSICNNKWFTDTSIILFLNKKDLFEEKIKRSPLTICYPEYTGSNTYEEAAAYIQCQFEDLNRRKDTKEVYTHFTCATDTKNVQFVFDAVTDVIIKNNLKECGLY
Sa growth 42C: blocks Staphylococcus aureus growth; S. aureus RN4220 growth, OD600, 20 h, 42 °C; stronger effect = lower value; relative growth, % (test concentration not listed); hit rate 0.53% among 170,000;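 active means growth at 42 °C up to 50% and 20 or more points under that at 30 °C, or under 10% at both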;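 further: 300 nL library stock went into each well; scaled to the means of positive and negative controls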
Sa growth 42C second temp: further read-out of Sa growth 42C, marked with its call; relative growth, %; measured here: growth at 30 °C;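 optical density after 20 h as mean of two plates; 100% = untreated growth and lower means inhibition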
* hit, by the source's call; · = not tested or not shown.

SMILES	HCMV UL50-53 inh	GIV-Gai inh	Sa growth 42C	Sa growth 42C second temp
C=CCN1C(=O)/C(=C/c2c(N3CCNC(=O)C3CC(=O)OCC)nc3ccccn3c2=O)SC1=S (stereo not given)	-37.3	·	93.7	90.3
CN(C)CCNC(=O)c1cc(N2CCc3ccccc3C2)nc2ccccc12	-53.1	·	90.0	65.6
CCS(=O)(=O)N1CCCc2cc(C(=O)N3CCN(c4ccccc4)CC3)ccc21	1.2	94.0	·	·
CCCNC(=O)Cn1nc(C)n2c(cc3cc(C)ccc32)c1=O	·	102.6	90.0	88.1
COC(=O)CNC(=O)c1nc(SC)ncc1Cl	-3.5	101.2	96.8	104.3
c1ccc2c(NCNc3noc4ccccc34)noc2c1	·	107.7	83.9	78.4
COc1ccc(CN(C)CC(=O)NC2CCCCC2)cc1	-4.1	·	112.4	104.2
COc1ccc(NC(=O)c2ccc3[nH]c(C)cc(=O)c3c2)cc1	-5.1	98.0	104.4	92.5
COc1ccc(C2=NN(C(=O)c3ccc(Br)o3)C(c3ccc(F)cc3)C2)cc1OC (stereo not given)	-9.3	115.5	·	·
Fc1cccc(CSCc2c(F)cccc2Cl)c1	-4.6	109.6	76.8	89.8
COc1ccc(S(=O)(=O)NCC(c2cccnc2)N2CCN(c3ccc(F)cc3)CC2)cc1C (stereo not given)	-6.9	112.6	114.6	61.3
COC(=O)c1sc2nc(SCC(=O)N3CCCc4ccccc43)n(N)c(=O)c2c1C	-10.3	107.0	104.3	89.8
COC(=O)c1ccc(/C=C/C(=O)OCC#N)cc1	-55.5	·	92.3	88.7
O=c1c2sccc2n2c(=S)[nH]nc2n1CC1CCCO1 (stereo not given)	-13.3	94.5	·	·
Cc1ccc(Oc2ccsc2C=C(C#N)C#N)cc1	-30.0	106.5	85.0	80.3
Cc1ccc(-c2cc(C(=O)N3CCCCC3)c3ccccc3n2)cc1C	·	98.4	47.2	37.2
O=C(Nc1cccc(Br)c1)N1CCC(CN2CCCCCC2)CC1	·	104.7	110.0	95.2
COc1ccc(CC(=O)N2CCCCCC2)cc1OC	-9.9	·	112.0	92.0
CCOc1ccc(NC(=O)c2ccc3[nH]c(C)cc(=O)c3c2)cc1	-7.1	98.0	108.9	93.1
COc1ccc(C2CC(=O)N(CC(=O)N3CCCCC3)c3ccccc3S2(=O)=O)cc1OC (stereo not given)	-2.7	106.9	104.2	91.5

Some of these compounds in order of molecular weight, smallest number first:
SMILES	HCMV UL50-53 inh	GIV-Gai inh	Sa growth 42C	Sa growth 42C second temp
O=C(Nc1cccc(Br)c1)N1CCC(CN2CCCCCC2)CC1	·	104.7	110.0	95.2
COC(=O)c1sc2nc(SCC(=O)N3CCCc4ccccc43)n(N)c(=O)c2c1C	-10.3	107.0	104.3	89.8
COc1ccc(C2CC(=O)N(CC(=O)N3CCCCC3)c3ccccc3S2(=O)=O)cc1OC (stereo not given)	-2.7	106.9	104.2	91.5

The list goes on:
SMILES	HCMV UL50-53 inh	GIV-Gai inh	Sa growth 42C	Sa growth 42C second temp
CC1=NN(c2ccccc2)C(=O)/C1=C\c1cn(CCC#N)nc1-c1ccc(F)cc1	-4.4	·	107.4	89.6
CCc1ccc(-c2cn3nc(CC)sc3n2)cc1	-1.9	106.2	96.9	94.4
CCOCCCNc1ncnc2sccc12	23.9	·	91.6	93.5
Cc1ccc(-n2nc3c(N4CCCC(C(=O)N5CCc6ccccc65)C4)nnc(C)c3c2C)cc1 (stereo not given)	-38.0	112.9	103.8	87.2
CSc1nnc(-c2cccnc2)n1-c1ccccc1F	2.0	·	89.6	95.7
COc1ccc(CNc2nc3nc(CN4CCCC4)cc(=O)n3[nH]2)cc1OC	-26.0	103.8	·	·
CNC(=O)Cn1cccc1C(=O)c1ccccc1	4.5	108.8	112.0	97.9
Cc1ccc(-c2c(CN3CCN(c4cc(C)ccc4C)CC3)csc2C)cc1	·	111.3	64.9	83.4
COc1ccc(/C=C2\SC(=O)N(CC(=O)Nc3cccc(O)c3)C2=O)cc1OC	8.2	104.9	·	·
COc1ccc(OCCSc2ncnc3nc[nH]c23)cc1	·	103.3	94.8	104.6
COC(OC)(C(C#N)c1ccccc1)C(F)(F)F (stereo not given)	1.9	97.4	105.2	91.7
Cn1nnnc1SCC(=O)Nc1ccc(C(=O)Nc2ccc3c(c2)OC2(CCCC2)O3)cc1	-14.7	·	82.7	89.7
FC(F)(F)c1ccc(-c2noc(-c3ccco3)n2)cc1	·	105.2	83.3	87.6
Cc1cccc(C)c1NC(=O)Cn1nnnc1N	-29.1	103.0	96.4	74.3
OC(CNCCc1ccccc1)Cn1nnnc1-c1ccccc1 (stereo not given)	·	102.0	96.8	85.0
O=C1NC(=Nc2ccccc2Cl)S/C1=C/c1cc2c(cc1Cl)OCO2	-10.4	113.5	·	·
CCCCN(Cc1nc2nc(C)cc(C)n2n1)C(=O)c1ccc(Cl)cc1	-19.1	104.4	·	·
Cc1ccc(-c2nccc(N3CCCC(C(=O)NC(C)c4ccc(C)cc4)C3)n2)cc1 (stereo not given)	3.6	111.0	·	·
C=CCSc1nc(C)c(CC=C)c(=O)[nH]1	-7.1	99.9	90.5	80.2
O=C(Nc1ccc(N2CCCS2(=O)=O)cc1)c1ccc(Br)cc1	-20.2	96.5	·	·

One compound at a time (already shown). Order of screens: HCMV UL50-53 inh, GIV-Gai inh, Sa growth 42C, Sa growth 42C second temp
CSc1nnc(-c2cccnc2)n1-c1ccccc1F as listed: 2.0, ·, 89.6, 95.7
COc1ccc(C2CC(=O)N(CC(=O)N3CCCCC3)c3ccccc3S2(=O)=O)cc1OC (stereo not given) as listed: -2.7, 106.9, 104.2, 91.5
Cc1cccc(C)c1NC(=O)Cn1nnnc1N as listed: -29.1, 103.0, 96.4, 74.3
C=CCN1C(=O)/C(=C/c2c(N3CCNC(=O)C3CC(=O)OCC)nc3ccccn3c2=O)SC1=S (stereo not given) as listed: -37.3, ·, 93.7, 90.3
C=CCSc1nc(C)c(CC=C)c(=O)[nH]1 as listed: -7.1, 99.9, 90.5, 80.2

Next structures:
SMILES	HCMV UL50-53 inh	GIV-Gai inh	Sa growth 42C	Sa growth 42C second temp
CCOc1cc(C2c3c(-c4cc(C)ccc4O)n[nH]c3C(=O)N2CCCOC(C)C)ccc1O (stereo not given)	0.7	110.6	93.6	74.1
CCOCCCNC(=O)C1CCCN(c2ncnc3onc(C)c23)C1 (stereo not given)	·	97.7	83.4	85.7
CCOc1ccc(-n2c(=O)c3c(C)c(C)sc3n(CC(=O)N(CC)Cc3ccccc3)c2=O)cc1	-9.9	106.9	111.3	94.5
Cn1cc(CCCC(=O)N2CCCC2)c2ccccc21	·	94.9	103.6	86.8
CCN(CC)S(=O)(=O)c1ccc(=O)n(CC(=O)Nc2cccc(OC)c2)c1	-24.4	·	75.6	97.1
Cc1ccc(NS(=O)(=O)c2ccc3c(c2)CCC(=O)N3)cc1Cl	-13.1	101.7	86.0	85.9
Cc1ccc(NC(=O)CSc2cc(=O)n(C)c3ccccc23)nc1	·	108.0	98.3	89.8
Cn1c2ccccc2c2c(C(=O)N3CCN(c4cccc(C(F)(F)F)c4)CC3)cn(C3CCCCC3)c(=O)c21	-13.7	103.5	102.9	77.9
CCn1c2ccccc2c2cc(NC(=O)Cn3c4ccccc4c(=O)c4ccccc43)ccc21	-26.9	99.0	·	·
CCc1nn2c(-c3ccco3)ccnc2c1-c1ccccc1	5.4	110.5	107.3	93.3
CCOC(=O)C1CCCN(C(=O)S(=O)(=O)c2ccc(-c3ccccn3)s2)C1 (stereo not given)	-22.4	103.3	91.9	78.6
CCN(Cc1cc2ccccc2[nH]c1=O)c1ccc(OC)cc1	-2.5	101.3	101.6	91.8
[S-]c1n[n+]2c(-c3ccccc3)cc(-c3ccccc3)nc2s1	·	112.2	95.6	75.8
COc1ccc(C2(CNC(C)=O)CCOCC2)cc1OC	-8.5	97.9	116.4	94.9
CC(=O)N1CCOc2cc(S(=O)(=O)N3CCCCC3)ccc21	·	102.5	119.0	89.6
COc1ccccc1OCC#CCN1CCCc2ccccc21	-12.4	103.1	103.7	101.1
Cc1cccc(CN2C(=O)c3ccccc3S(=O)(=O)c3ccc(C(=O)NCCC4=CCCCC4)cc32)c1	-31.8	100.6	87.4	90.5
Cc1cccc2cc(CC3CC(c4ccccc4)=NN3C(=O)CCC(=O)O)c(=O)[nH]c12 (stereo not given)	3.3	110.1	·	·
Cc1cc(NC(=O)c2cccc(C(=O)Nc3cc(C)on3)n2)no1	1.8	99.1	·	·
CCC(C(=O)Nc1ccccc1)n1nc(-c2ccc(C)c(S(=O)(=O)N3CCOCC3)c2)ccc1=O (stereo not given)	-35.0	95.2	·	·
CCOC(=O)c1c(NC(=O)Cc2ccc(Cl)cc2)sc(C(=O)Nc2ccc(C)cc2C)c1C	-7.2	104.5	·	·
Cc1cc2nnc(SCC(=O)Nc3ccc(S(N)(=O)=O)cc3)n2c2ccccc12	-6.4	102.7	·	·
NC(=O)CSc1nnc(-c2ccc(S(=O)(=O)N3CCCC3)cc2)o1	-11.0	109.3	118.1	93.9
O=C(Nc1ncccn1)c1cccc(F)c1	-19.1	·	99.3	81.7
COC(=O)c1cc(S(=O)(=O)NCCC(=O)NCc2ccccc2Cl)cn1C	-14.3	101.6	·	·
Cc1cc(C)c2c(CC(=O)N3CCCc4ccccc43)coc2c1	-2.8	107.4	100.8	83.3
Cc1ccc(NC(C(N)=O)c2c(C)[nH]c(=O)[nH]c2=O)cc1 (stereo not given)	-3.7	102.4	106.0	90.3
O=C(Nc1cccc(Cl)c1Cl)c1cc(S(=O)(=O)N2CCCc3ccccc32)ccc1F	·	102.0	103.9	101.6
Cc1ccc(CNC(=O)C(C)n2nc(C)c3sc4ccccc4c3c2=O)cc1 (stereo not given)	13.7	106.6	104.6	95.0
Cc1cc(=O)c(C(=O)Nc2ccc(N3CCOCC3)cc2N2CCOCC2)nn1-c1ccc(Cl)cc1	-22.7	·	90.6	96.7
Cc1nn(-c2ccccc2)c2sc(-c3noc(-c4ccccc4F)n3)cc12	-10.2	91.0	·	·
Cc1ccc(-c2nonc2NC(=O)C(C)Oc2ccc(C(C)C)cc2)cc1C (stereo not given)	1.9	102.1	·	·
Cc1cccc(NC(=O)C2CCN(S(=O)(=O)c3cccc4cccnc34)CC2)c1C	-2.7	107.2	·	·
CC(Oc1ccc(C(C)(C)C)cc1)c1nc(-c2cccnc2)no1 (stereo not given)	-26.9	100.0	·	·
Cc1ccc(NC(=O)CS(=O)CC(=O)Nc2ccc(N3CCOCC3)cc2)cc1Cl (stereo not given)	-7.0	98.5	79.0	83.2
Cc1ccccc1Nc1c(-c2ccc(N(C)C)cc2)nc2cnccn12	-29.4	100.8	·	·
CCCc1nc2c3ccccc3[nH]c(=O)n2n1	-0.7	104.0	103.0	85.7
Cc1ccc(S(=O)(=O)N2C(=O)CCC2C(=O)NC2CCCC2)cc1C (stereo not given)	-0.9	101.9	·	·
Cc1ccccc1C(=O)N1CCc2cc3cccc(C)c3nc21	-6.7	99.5	·	·
Cc1ccn2c(Nc3ccccc3C)c(-c3ccc(N4CCOCC4)cc3)nc2c1	14.0	103.1	99.8	97.0
CCCc1cc(=O)n2[nH]c(CNc3ccc(OCC)cc3)nc2n1	-9.2	108.0	·	·
Cc1cccc(-c2nc3ccccc3n2Cc2ccccc2)c1	7.8	106.1	84.6	62.0
NC(=O)CSc1oc(-c2cccs2)nc1S(=O)(=O)c1ccc(Br)cc1	-11.0	109.0	104.4	91.0
COc1cccc2c1cc1c(=O)n(CC(=O)NCc3ccc(N(C)C)cc3)nc(C)n12	1.1	98.2	113.7	95.5
CSc1cccc(NS(=O)(=O)c2ccc3c(c2)OC(C)CN3C(C)=O)c1 (stereo not given)	·	102.1	102.5	82.1
Cc1cc(C)c(C(=O)C2CCN(C(=O)c3cccs3)CC2)c(C)c1	-3.7	102.4	109.3	103.0
O=C(CSc1nc2ccccc2nc1N1CCCCC1)N1CCN(c2ccc(Cl)cc2)CC1	-5.0	104.2	98.0	83.4
CCCC1=C(c2ccccc2)C(=O)NC1	-1.8	103.2	110.3	91.1
COC(CN(C)C(=O)c1cn(C)c2ccc(S(=O)(=O)N3CCC(C)CC3)cc2c1=O)OC	-19.6	103.9	101.7	92.5
CCN1CCN(C(=O)CCCN2C(=O)COc3ccc(C)cc32)CC1	-14.5	102.2	·	·

The list goes on; the last three above are carried over.
SMILES	HCMV UL50-53 inh	GIV-Gai inh	Sa growth 42C	Sa growth 42C second temp
CCCC1=C(c2ccccc2)C(=O)NC1	-1.8	103.2	110.3	91.1
COC(CN(C)C(=O)c1cn(C)c2ccc(S(=O)(=O)N3CCC(C)CC3)cc2c1=O)OC	-19.6	103.9	101.7	92.5
CCN1CCN(C(=O)CCCN2C(=O)COc3ccc(C)cc32)CC1	-14.5	102.2	·	·
Cc1nn(Cc2ccccc2)c(C)c1C(=O)NS(=O)(=O)c1ccccc1Cl	2.7	92.8	78.0	95.2
CC(C)CNS(=O)(=O)c1ccc(CCC(=O)N2CCN(c3ccccc3)CC2)cc1	3.9	108.8	97.1	89.6
COc1ccc(S(=O)(=O)N2CCN(C(=O)/C=C/c3ccccc3)CC2)cc1	·	104.8	94.5	93.1
CCN(CC)C(=O)c1cccc(S(=O)(=O)N(C)C)c1	-30.8	·	124.8	79.7
Cc1ccc2c(CC(=O)NCc3ccccc3)coc2c1C	-2.1	102.0	115.2	103.4
CC1(C)C(=O)N(CC(=O)Nc2ccc(Cl)cc2F)c2ccc(S(=O)(=O)N3CCCC3)cc21	-35.0	104.9	·	·
CCn1c(SCC(=O)NN2CC(=O)N(c3ccc(F)cc3)CC2=O)nnc1-c1cccs1	-17.8	103.8	96.4	92.8
CSc1ncc(C(=O)NCc2ccccc2Cl)c(C(F)(F)F)n1	·	102.9	89.8	95.8

Assay outcomes as filed in PubChem BioAssay.
